Source: PubChem BioAssay (National Center for Advancing Translational Sciences (NCATS))
Resorufin fluor: compound fluoresces in the resorufin spectral region; AID 588; max dye-equivalent concentration, M; 59,000 compounds, 0.04% hits; Compound fluorescence, resorufin region 547/598 nm, buffer; hits give high values; active = above 10 nM dye equivalent; inconclusive = 1 to 10 nM; inactive = 1 nM or less; a few of its hits are not listed in these tables; note: highest value over a series up to 38 µM
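Compounds in 100 mM Tris, pH 8.0, incubated 15 min at room temperature, then fluorescence read at 547 nm excitation/598 nm emission. Signal converted to dye-equivalent concentration via an on-plate six-point resorufin standard curve, per compound concentration.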
AID923: qHTS Assay for Allosteric/Competitive Inhibitors of Caspase-1: Spectroscopic Profiling in AFC Spectral Region | compound fluorescence, AFC spectral region (405/520 nm); almost no hit is shown here | Potency, µM (series often up to 57.5 µM), inactives show top-dose fluorescence increase, actives largely listed as activators | 75,000 compounds, 1.1% hits | AID 923, 2007; active = well fitted activation curve with a large enough effect; inconclusive = small, poorly fitted or top-dose-only effect;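 note: potency is the fitted concentration of half-maximal effect; 0% is about no effect; scaled to a free AFC standard on each plate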
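Compound autofluorescence profiled at 405 nm ex/520 nm em during kinetic caspase 1 run (50 nM enzyme, 5 uM Ac-WEHD-AFC, HEPES pH 7.5, 10 mM DTT). Titration up to 57 uM; baseline from regression intercept, normalized to AFC standard curve.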
A488 autofl: compound fluoresces in the A488 spectral region. max dye equivalency, M. 59,000 compounds, 0.1% hits. AID 591. compound autofluorescence, A488 spectral region, dye equivalency; hits give high values; active = above 10 nM dye equivalent; inconclusive = 1 to 10 nM; inactive = 1 nM or less; about half of its hits are not listed in these tables;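 note: highest value over a series up to 38 µM; compound alone in buffer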
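Compounds pin-transferred into 100 mM Tris buffer, pH 8.0, incubated 15 min at room temperature, then imaged with 480 nm excitation/540 nm emission filters. Fluorescence converted to Alexa 488 dye-equivalent concentration via an on-plate six-point A488 standard curve.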
TSHR ag: activates the human thyroid stimulating hormone receptor; AID 926; P16473; 73,000 compounds, 0.48% hits; HEK293-CNG-TSHR cells (CNG channel as cAMP sensor), membrane potential dye, cAMP; Potency, µM (highest dose often 57.1 µM), for inactives: at the highest dose activation, hits mostly activators; active = well fitted activation curve of enough size with the parental cells flat; inconclusive = any curve in the parental cells; inactive = parental cells flat and receptor cells flat or falling; note: potency is the fitted concentration of half-maximal effect; % of control where 0% means no effect; weak receptor curves with flat parental cells got no call and are not listed
Target sequence (P16473 whole entry, looked up): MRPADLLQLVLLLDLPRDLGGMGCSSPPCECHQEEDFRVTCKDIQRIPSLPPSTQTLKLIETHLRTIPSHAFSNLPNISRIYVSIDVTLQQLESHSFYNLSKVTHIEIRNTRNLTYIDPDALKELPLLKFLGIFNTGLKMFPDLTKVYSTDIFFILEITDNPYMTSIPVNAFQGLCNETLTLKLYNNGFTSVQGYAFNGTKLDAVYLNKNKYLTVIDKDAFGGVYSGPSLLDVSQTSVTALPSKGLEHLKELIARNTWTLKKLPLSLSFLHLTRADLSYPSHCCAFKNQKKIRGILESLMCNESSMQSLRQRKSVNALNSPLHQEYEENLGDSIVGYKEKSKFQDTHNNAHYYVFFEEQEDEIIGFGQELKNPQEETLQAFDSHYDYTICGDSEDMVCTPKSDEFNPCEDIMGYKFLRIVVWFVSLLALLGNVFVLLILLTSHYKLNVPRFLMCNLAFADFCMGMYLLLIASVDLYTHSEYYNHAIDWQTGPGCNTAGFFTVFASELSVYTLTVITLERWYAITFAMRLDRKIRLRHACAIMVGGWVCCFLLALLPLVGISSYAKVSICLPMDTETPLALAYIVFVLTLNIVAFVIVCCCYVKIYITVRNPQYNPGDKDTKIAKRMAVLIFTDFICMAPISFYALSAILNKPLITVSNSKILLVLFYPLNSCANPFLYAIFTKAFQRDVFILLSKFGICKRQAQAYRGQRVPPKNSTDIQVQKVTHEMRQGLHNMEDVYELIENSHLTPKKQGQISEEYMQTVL
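HEK 293 cells stably expressing TSHR and a cAMP-gated CNG channel; parental CNG-only cells as counterscreen. Cells preloaded 60 min with membrane potential dye plus 100 uM RO 20-1724, then compound 30 min; fluorescence read at 590 nm.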
A647 autofl: compound fluoresces in the A647 spectral region; Compound fluorescence, A647 channel (570/671 nm), Tris buffer; max dye-equivalent concentration, M; 59,000 tested, under 10 active; AID 592; active means above 1 µM dye equivalent; inconclusive means 0.1 to 1 µM; inactive means 0.1 µM or less;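 note: values scaled relative to a standard on each plate; highest value over a series up to 38 µM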
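Compounds pinned into 100 mM Tris pH 8.0, 15 min at room temperature, then read with 570 nm excitation/671 nm emission filters. Fluorescence normalized to an on-plate six-point Alexa 647 standard curve, giving dye-equivalent concentration per compound concentration.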
* hit, by the source's call; i = inactive; ? = inconclusive; · = no result given; [ ] = another dose, or the depositor's remark. Not all compounds are listed; the hit share may differ from the screen's.

Sequence of screens: A647 autofl	A488 autofl	TSHR ag	AID923	Resorufin fluor
CCCC(c1nnnn1C1CCCCC1)N1CCN(c2ncccn2)CC1 (stereo not drawn)
→ 1.53e-08	i	11.2%	1.2%	i
S=C(S)NCCN1CCNCC1
→ 1e-09	i	-4.5%[11.4 µM]	-2.7%[11.5 µM]	i
Cc1nc(NCc2ccccc2)c2nc(-c3ccccc3)n(CCN3CCOCC3)c2n1
→ ·	·	?	-4.3%	·
O=C(c1csnn1)N1CCC2(CC1)CN(c1cccc(-c3ccccc3)c1)C2
→ 2.4e-09	i	?	4.8%	i
CC1(C)CC(=O)C2=C(C1)OC(c1cccs1)C(C#N)=C2N (stereo not drawn)
→ 9.6e-09	i	1.0%[11.4 µM]	1.8%	i
N#CCSc1nnc(-c2ccccc2O)n1CCc1ccccc1
→ 1e-09	i	2.9%	0.0%	i
COc1cccc(N2CCN(C(=O)c3cccnc3)CC2)c1
→ ·	·	-4.7%	-1.4%	·
Clc1ccc(Cl)c2sc(N3CCCC3)nc12
→ 3.58e-08	i	·	0.5%	i
Cc1ccc2cc(CN(CC3CCCO3)C(=O)NC3CCCCC3)c(=O)[nH]c2c1C (stereo not drawn)
→ 3.2e-09	i	7.2%	-0.2%	i
CC(=O)C(C)Oc1ccc2c3c(c(=O)oc2c1C)CCCC3 (stereo not drawn)
→ 3.77e-08	i	·	5.5%	i
O=c1c(-c2ccc(F)cc2)nc2cncnc2n1Cc1ccccc1
→ 3.25e-08	i	-14.7%	1.5%	i
CSc1nc2sc3c(c2c(=O)n1C)CCC(C)C3 (stereo not drawn)
→ 1e-09	i	?	-1.1%	i
O=C(CSc1c2c(nc3ccc(Cl)cc13)CCCC2)N1CCN(C(=O)c2ccco2)CC1
→ 3.8e-08	i	·	-0.3%	i
CC1(C)OC(C(=O)NC2CCCCC2)C(C(=O)NC2CCCCC2)O1 (stereo not drawn)
→ 1.2e-09	i	10.6%	0.9%	i
COC(=O)c1[nH]c(C)c(/C(O)=C2\C(=O)C(=O)N(CCN3CCOCC3)C2c2cccs2)c1C (stereo not drawn)
→ 1e-09	i	-6.1%	3.5%	i
C=CCNC(=O)c1cc(=O)c2ccccc2o1
→ 6.9e-09	i	9.1%[11.4 µM]	-0.5%	i
CCOC(=O)C1CCN(C(=O)c2ccc(OC)cc2OC)CC1
→ ·	·	0.1%	0.1%	·
COc1cc(C)ccc1NC(=O)c1ccc(S(=O)(=O)N2CCOCC2)cc1
→ 3.97e-08	i	-2.7%[11.4 µM]	-0.8%	i
COc1ccc2[nH]c(=S)[nH]c2c1
→ 1e-09	i	2.8%	0.3%	i
CCOc1cccc(-c2cc(=O)[nH][nH]2)c1
→ 1e-09	i	-1.4%	-2.1%	i
NC(Cc1ccc2nonc2c1)C(=O)O (stereo not drawn)
→ 1.8e-08	i	-3.3%	-0.3%	i
CCN(CCCNC(=O)c1[nH]c(C)c(C(C)=O)c1C)c1ccccc1
→ 2.2e-09	i	-1.2%	-0.8%	i
CCOC(=O)CSc1nc(N)c2c3c(sc2n1)CCCC3
→ 1.2e-09	i	·	·	i
CCCCc1cc2ccccc2c(OCCN(C)C)n1
→ 4.99e-08	i	20.4%[25.6 µM]	-2.4%[25.7 µM]	i
CCOc1ccc(C2CC(c3cccc(OC)c3)n3nc(N)nc3N2)cc1 (stereo not drawn)
→ ·	·	1.7%	4.2%	·
N#CC1=C(O)CCCn2c1nc1ccccc1c2=O
→ 4.9e-09	i	-0.6%	0.4%	i
Clc1ccccc1OCCCCN1CCCC1
→ ·	·	13.8%	0.2%	·
CC(C)NC(=O)CSCc1ccccc1Cl
→ ·	·	-0.7%[11.4 µM]	-0.9%	·
Cc1nc(-c2ccccc2)c(Cc2ccccc2O)c(=O)[nH]1
→ 4.22e-08	i	-4.7%[11.4 µM]	1.6%[11.5 µM]	i
CCCCn1c(N)c(Sc2ccc(C)cc2)c(=O)[nH]c1=O
→ 1.3e-09	i	3.7%	0.3%	i
COC(C(C)/C=C/CC(=O)OCCCc1ccccc1)C1CCCCC1 (stereo not drawn)
→ ·	·	-0.4%[11.4 µM]	-1.6%[11.5 µM]	·
CS(=O)(=O)NCCSCc1ccccc1
→ 1.84e-08	i	14.9%	0.2%	i
CC1(C)N=C(N)N=C(N)N1CCCCc1ccccc1
→ 7.5e-09	i	1.2%[11.4 µM]	0.8%[11.5 µM]	i
CSC1=NCCN1C(=O)c1ccc(S(=O)(=O)N(C)C)cc1
→ ·	·	8.5%	1.8%	·
Cc1cccc(N(CC(=O)Nc2c(C)n(C)n(-c3ccccc3)c2=O)S(C)(=O)=O)c1
→ ·	·	3.2%	0.3%	·
O=C(NCCO)C(c1ccccc1)c1ccccc1
→ ·	·	5.7%	2.1%	·
CC(C)CN(C(=O)COC(=O)C12CC3CC(CC(O)(C3)C1)C2)C1CCS(=O)(=O)C1 (stereo not drawn)
→ 2.91e-08	i	-1.3%	1.1%	i
O=C(C1CC1)N1CCc2cc(S(=O)(=O)NCC3COc4ccccc4O3)ccc21 (stereo not drawn)
→ 1.71e-08	i	?	-0.6%	i
O=C1CC(N2CCN(c3cccc(C(F)(F)F)c3)CC2)C(=O)N1c1ccccc1 (stereo not drawn)
→ ·	·	-3.6%	0.7%	·
CCOC(c1cc(OC)cc([N+](=O)[O-])c1OC)C(C)C(OC)[C@@H](C)/C=C/CC(=O)OC (stereo partly drawn)
→ ·	·	15.3%[11.4 µM]	1.1%[11.5 µM]	·
Cc1sc(NC(=O)CN2CCN(c3ccccn3)CC2)c(C#N)c1C
→ 1.8e-09	i	2.5%	0.4%	i
COc1ccccc1N(CC(=O)NCc1cccnc1)S(C)(=O)=O
→ ·	·	-3.6%	0.2%	·
CN(Cc1nnc(SCC(=O)NCCc2ccccc2)n1C)S(=O)(=O)c1ccccc1
→ 1.1e-08	i	-7.5%	-3.1%	i
N#CCCSc1nc(N2CCOCC2)c2c(c1C#N)CCCC2
→ 1e-09	i	·	·	i
COc1ccccc1Oc1ccc2c(c1)C(=O)N(c1cccc(O)c1)C2=O
→ ·	·	10.3%	5.7%	·
C#CCSC1=C(C#N)C(c2cccs2)C(C(=O)OCC)=C(C)N1 (stereo not drawn)
→ 7.52e-08	i	·	·	i
O=C(Nc1cnn(Cc2ccccc2)c1)c1nc2ncccn2n1
→ 2.25e-08	i	-2.2%	-0.3%	i
CCOC(=O)c1nnn(CC(=O)Nc2cccc(OC)c2)c1C(=O)OCC
→ 3.7e-09	i	29.6%	0.4%	i
CCOC(=O)N1CCC(N2Cc3cccc(C(=O)NCc4ccccc4OC)c3C2=O)CC1
→ 5.18e-08	i	6.5%	2.0%	i
CCn1c(Cc2ccccc2)nnc1SCC(=O)Nc1ccc(N2CCOCC2)c(Cl)c1
→ 6e-08	i	40.5%	-3.1%	i
Cc1[nH]n2c(=O)cc(Cc3ccccc3)nc2c1C#N
→ 6.2e-09	i	-0.1%	0.0%	i
COc1cccc(CN=CC2=C(O)CC(C)(C)CC2=O)c1OC
→ ·	·	14.4%	-0.8%	·
CC(C)OC(=O)CSc1nnc2n1C(C)(C)Cc1ccccc1-2
→ 3.67e-08	i	17.7%	-1.8%	i
COCCn1c(-c2cc(OC)c(OC)c(OC)c2)nc2nc3ccccc3nc21
→ 1e-09	i	-1.7%	0.7%	i
O=C(Nc1nccs1)c1ccc(Cl)c(S(=O)(=O)N2CCOCC2)c1
→ 1e-09	i	3.8%	0.4%	i
CC1(C)Cc2c(sc3nc(-c4cc5ccccc5o4)n(N)c(=O)c23)CO1
→ 6.2e-09	i	?	2.1%	i
CCOC(=O)COc1ccc2c3c(c(=O)oc2c1C)CCC3
→ 1.6e-09	i	24.6%	-1.5%	i
COc1ccc(-c2nc(NC(=O)C3CCN(c4nc5ccccc5o4)CC3)sc2C)cc1
→ 1.17e-08	i	-0.2%	0.0%	i
O=C1CN(C(=O)c2ccco2)C(c2ccccc2)c2cc(Cl)ccc2N1 (stereo not drawn)
→ 6.8e-09	i	13.9%	0.6%	i
CN(C)c1ccc(NC(=O)Cn2c(=O)n(Cc3ccccc3)c(=O)c3ccccc32)cc1
→ 1e-09	i	-7.2%	1.2%	i

Continued:
Sequence of screens: A647 autofl	A488 autofl	TSHR ag	AID923	Resorufin fluor
Cn1c(COc2ccccc2)nnc1SCCSc1nnc(COc2ccccc2)n1C
→ 2.15e-08	i	-0.3%	2.3%	i
Cc1cc(NC(=O)c2noc3c2CCCCC3)no1
→ 4.6e-09	i	-9.4%	-1.2%	i
CCOC(=O)C(NS(=O)(=O)c1ccc(Br)cc1)C(C)C (stereo not drawn)
→ 1e-09	i	2.5%	-0.2%	i
CC1CCCC(NC(=O)COC(=O)Cc2cn3ccsc3n2)C1C (stereo not drawn)
→ 3.16e-08	i	?	-0.5%	i
O=C(c1nn(Cc2ccccc2)c(=O)c2ccccc12)N1CCN(c2ccccn2)CC1
→ 1e-09	i	?	-0.4%	i
CCOC(=O)c1c(NC(=O)CN(CC)CC)sc2c1CCN(C(=O)OCC)C2
→ ·	·	?	-0.5%	·
CCc1nnc(NC(=O)CCC(=O)N2CCN(Cc3ccc(Cl)cc3)CC2)s1
→ 6.7e-09	i	6.8%	-1.4%	i
O=C(CN1C(=O)C2C3c4ccccc4C(c4ccccc43)C2C1=O)N1CCOCC1 (stereo not drawn)
→ 1e-09	i	0.6%	-3.6%	i
CCOC(=O)N1CCN(C(=O)CCc2nc3sc4c(c3c(=O)[nH]2)CCCC4)CC1
→ 1e-09	i	?	1.0%	i
Nc1nc(Cc2ccccc2)nc(Cc2ccccc2)c1-c1ccccc1
→ 4.59e-08	i	10.0%[11.4 µM]	-0.8%[11.5 µM]	i
COC(=O)[C@@]1(Cc2ccc(F)cc2)[C@H]2c3cc(C(=O)N(C)C)n(Cc4cc(F)c(F)c(F)c4)c3C[C@H]2CN1C(=O)c1ccccc1
→ ·	·	-8.0%	3.0%	·
O=C(c1cccc(F)c1)N1CCN(S(=O)(=O)c2ccc(C(F)(F)F)cc2)CC1
→ 1.39e-08	i	7.6%	1.4%	i
Cc1nc2nc(C)c(CCC(=O)NCCC3=CCCCC3)c(C)n2n1
→ 1e-09	i	2.7%	0.8%	i
Cc1cc(=O)n(-c2ccc(O)cc2)[nH]1
→ 3.2e-09	i	-11.4%	1.5%	i
COc1ccc(Cl)cc1-c1nc(-c2ccncc2)no1
→ 1.28e-08	i	9.0%	-0.4%	i
O=C1OC2(CCCCC2)OC(=O)C1=CNc1ccc2c(c1)OCO2
→ 2.3e-09	i	4.1%	0.3%	i
CCn1c(C)cc(=S)c2ccccc21
→ 4.01e-08	i	-4.4%[11.4 µM]	3.2%	i
CCOC(=O)CSc1nc2cccnc2n1-c1ccc(F)cc1
→ 5.19e-08	i	?	0.3%	i
C=CCOc1cccc(C2C(C(=O)c3ccc(C)o3)=C(O)C(=O)N2c2nccs2)c1 (stereo not drawn)
→ 1.88e-08	?	15.8%	14.0%	i
COCCNC(=O)c1ccc(CS(=O)(=O)c2c(Cl)cccc2Cl)o1
→ ·	·	-11.6%	3.2%	·
C=CCn1c(SCCCc2ccccc2)nc2c1c(=O)[nH]c(=O)n2C
→ ·	·	40.0%	-1.0%	·
Cc1ccc(SCc2[nH]nc3c2C2(C(=O)N(C)c4ccccc42)C(C#N)=C(N)O3)cc1 (stereo not drawn)
→ 1.8e-09	i	7.4%	0.2%	i
